TRPML1 inh = blocks the human TRPML1 channel; Q9GZU1; TRPML1-inducible cells, Ca2+ dye fluorescence, FDSS; stronger effect = lower value; inhibition of EC80 agonist-evoked calcium signal; activity change, negative = inhibition, % (no concentration beside the values); hit rate 0.02% among 390,000; AID 624415; in the data active means activity change below about -50%; inconclusive means about -30% to -50%; inactive means above about -30%;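 note: stimulus is agonist 54-4 at its EC80 concentration; % is set by controls: 0 for no effect and ±100 for the full control effect; compound concentration not given in the record; the text of the record puts the active cut at -80%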
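Tet-induced TRPML1-DL cells loaded with Ca8 no-wash calcium dye were read kinetically on FDSS. Compound addition was followed by EC80 agonist 54-4 (4 uM final); inhibition was read over 110 s.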
TRPML1 ag = human mucolipin-1 channel agonism. TRPML1-expressing cells, Ca2+ dye fluorescence, FDSS; host cell line not named in the record; reference of the full effect not given here. activation, % (concentration not given with the values). hit rate 0.12% among 410,000. AID 624414; in the data active = activation above about 50%; inconclusive = about 30% to 50%; inactive = below about 30%; note: 0% is about no effect; the text of the record puts the active cut at 80%
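In this qHTS format, compounds were pin-transferred onto Ca8-dye-loaded TRPML1-DL cells induced with Tet overnight, and intracellular Ca2+ fluorescence was recorded kinetically for 110 s after a 10 s baseline. A subsequent 4uM final 54-4 (EC80) addition followed by a second 110 s read served as the antagonist phase.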
Six1-Eya2 inh = blocks human Six1 binding to Eya2 | Q15475+O00167 | AlphaScreen GST-Six1/His-Eya2 binding, biochemical; stronger effect = lower value; control for the full effect not named in the record | activity change, % (no concentration beside the values) | hit rate 0.56% among 360,000 | AID 651725; in the data active = activity change below about -65%; inconclusive = about -30% to -65%; inactive = above about -30%; note: % is set by controls: 0 for no effect and ±100 for the full control effect; compound concentration not given in the record
Target sequence (O00167 whole entry, looked up): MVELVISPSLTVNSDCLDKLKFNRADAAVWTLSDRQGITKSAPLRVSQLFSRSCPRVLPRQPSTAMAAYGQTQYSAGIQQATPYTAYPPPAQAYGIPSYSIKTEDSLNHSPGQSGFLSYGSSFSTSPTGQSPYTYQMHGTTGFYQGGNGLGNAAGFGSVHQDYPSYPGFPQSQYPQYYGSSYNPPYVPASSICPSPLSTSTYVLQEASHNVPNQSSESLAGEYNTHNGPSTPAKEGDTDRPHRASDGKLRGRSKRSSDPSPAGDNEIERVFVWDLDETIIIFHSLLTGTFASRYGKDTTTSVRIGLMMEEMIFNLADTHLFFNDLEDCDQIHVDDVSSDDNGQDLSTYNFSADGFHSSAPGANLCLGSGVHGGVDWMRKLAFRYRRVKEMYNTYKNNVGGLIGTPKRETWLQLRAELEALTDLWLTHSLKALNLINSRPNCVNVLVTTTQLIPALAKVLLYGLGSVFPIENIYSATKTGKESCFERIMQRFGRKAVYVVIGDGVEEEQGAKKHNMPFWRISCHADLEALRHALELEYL
Target sequence (Q15475 whole entry, looked up): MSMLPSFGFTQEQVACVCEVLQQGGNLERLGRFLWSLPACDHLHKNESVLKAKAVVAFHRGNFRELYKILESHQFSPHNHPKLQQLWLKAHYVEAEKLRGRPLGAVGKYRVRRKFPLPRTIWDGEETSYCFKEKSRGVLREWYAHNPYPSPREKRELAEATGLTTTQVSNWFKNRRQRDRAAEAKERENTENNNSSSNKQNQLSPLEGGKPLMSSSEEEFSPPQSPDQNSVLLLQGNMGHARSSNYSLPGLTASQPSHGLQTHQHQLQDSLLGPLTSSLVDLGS
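GST-Six1 + His-Eya2 (5X stock: 250/500 nM); Tris pH 8.0, 300 mM NaCl, 0.05% BSA, 0.02% Tween 20; GSH donor/Ni acceptor beads; 1 h 37 °C dark; AlphaScreen readout.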
D2 PAM = positive allosteric modulators of human D2 dopamine receptor. potentiation, % (test concentration not listed). AID 624464. hit rate 0.23% among 360,000. DiscoveRx D2 beta-arrestin cells, luminescence, 90 min; 100% = 57 uM dopamine signal; active = potentiation of 50% or more; inconclusive = 30% to 50%; inactive = 30% or less;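 note: compound concentration not given in the record; tested on top of an EC20 dose of dopamine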
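PathHunter D2 cells, attached overnight at 37 deg C, received compound in DMSO plus dopamine at EC20 (50 nM final) for 90 min at 37 deg C. Beta-arrestin recruitment was read as luminescence after 1 h with detection reagent at ambient temperature.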
D2 ag = activates the human D2 dopamine receptor; P14416; DiscoveRx PathHunter D2 beta-arrestin, luminescence, 90 min; 100% = 57 uM dopamine signal; activation, % (no concentration beside the values); hit rate 0.084% among 360,000; AID 624465; in the data active = activation above about 40%; inconclusive = about 15% to 40%; inactive = below about 15%; note: compound concentration not given in the record; the text of the record calls up to 30% inactive
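Agonist mode: compounds alone added to overnight-plated D2 PathHunter cells for 90 min at 37 C, with 57 uM final dopamine (EC100) defining full response. Beta-arrestin recruitment detected by chemiluminescent reagent, read after 1 h at ambient temperature.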
PINK1 expr mod = changes PINK1 expression; PINK1 immunofluorescence, high-content cytometry, 24 h; Potency, µM (doses to about 76.6 µM), for inactives: top-dose activation (PINK1 increase), most hits filed as activators; hit rate 0.2% among 410,000; active = well fitted activation curve with a large enough effect; inconclusive = small, poorly fitted or top-dose-only effect; inactive = flat fitted curve, though single readings scatter; cell line not stated here;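 note: potency is the fitted concentration of half-maximal effect; % of control where 0% means no effect; nearly all actives have a fitted effect of over 65% in size; a mitochondrial uncoupler was the plate control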
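PINK1 protein, normally rapidly degraded, was detected by immunofluorescence after 24 hour compound treatment of a stable cell line. Titration data (5 concentrations) came from laser-scanning cytometry, with CCCP-treated wells as controls.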
The depositor's hits bear a star; ? = inconclusive; nt = not tested or not shown; & = joins results of further samples; [ ] = dose if it differs, or a comment.

Sample of the layout:
SMILES	TRPML1 inh	TRPML1 ag	Six1-Eya2 inh	D2 PAM	D2 ag	PINK1 expr mod
N#CCSCC(=O)Nc1ccccc1	?	-0.2	1	-8	-1.5	5.1%
O=C(NCc1ccc(OC(F)(F)F)cc1)C1CC(c2ccccc2C(F)(F)F)=NO1 (stereo not given)	14	3.3	5	-4	-3.1	0.6%
O=C(NNC(=O)C1CC1c1ccccc1)Nc1ccccc1 (stereo not given)	-14	-0.5	4	-3	-0.6	-1.8%
Cc1ccc(Cn2cccc(NC(=O)NCc3ccccc3)c2=O)cc1	4	0.4	1	-9	-2.3	3.0%[38.3 µM]
O=C(c1ccc(F)cc1)N1CCC(N2CCCCCC2)CC1	?	-0.2	21	-10	-4.4	-2.2%
COC(=O)C1=C(C)OC(N)=C(C#N)C1c1ccccc1 (stereo not given)	25	1.5	5	-2	-1.2	-3.0%

Results, from the start:
SMILES	TRPML1 inh	TRPML1 ag	Six1-Eya2 inh	D2 PAM	D2 ag	PINK1 expr mod
N#CCSCC(=O)Nc1ccccc1	?	-0.2	1	-8	-1.5	5.1%
O=C(NCc1ccc(OC(F)(F)F)cc1)C1CC(c2ccccc2C(F)(F)F)=NO1 (stereo not given)	14	3.3	5	-4	-3.1	0.6%
O=C(NNC(=O)C1CC1c1ccccc1)Nc1ccccc1 (stereo not given)	-14	-0.5	4	-3	-0.6	-1.8%
Cc1ccc(Cn2cccc(NC(=O)NCc3ccccc3)c2=O)cc1	4	0.4	1	-9	-2.3	3.0%[38.3 µM]
O=C(c1ccc(F)cc1)N1CCC(N2CCCCCC2)CC1	?	-0.2	21	-10	-4.4	-2.2%
COC(=O)C1=C(C)OC(N)=C(C#N)C1c1ccccc1 (stereo not given)	25	1.5	5	-2	-1.2	-3.0%
CC(=O)Nc1ccc(OS(=O)(=O)c2ccc([N+](=O)[O-])cc2)cc1	4	-0.4	0	15	5.9	0.1%
Cc1cc(Cl)cc(Cl)c1CNc1c([N+](=O)[O-])c(=O)oc2ccccc12	-18	1.1	1	-18	-2.3	26%
Cc1ccc(OCC(=O)NS(=O)(=O)c2ccc(Cl)cc2)cc1	-3	0.4	-1	-18	-7.0	0.1%
CCc1nnc(NC(=O)Cc2ccc(S(=O)(=O)N3CCCCC3)cc2)s1	-10	2.0	1	2	0.2	0.7%
C/C(=N\NC(=O)CN(c1ccccc1Br)S(C)(=O)=O)c1cccs1	-4	-0.6	2	-11	-2.1	0.4%
CCCCCC(=O)Nc1ccc(N2CCN(S(C)(=O)=O)CC2)cc1	7	0.4	0	-11	1.0	2.7%[38.3 µM]
Nc1ncnc2nc(-c3ccccc3)[nH]c12	-3	-0.2	-21	-9	-5.0	1.6%
Cc1ccc(C(=O)NCCN2CCCC2)cc1	8	-0.4	5	-17	-3.2	2.5%
COc1ccc(CCNC(=O)c2ccc3c(c2)N=C(C)c2ccccc2S3)cc1OC	24	-0.9	nt	nt	nt	1.1%
Cc1cccc(C(=O)O/N=C(/c2ccccc2)c2ccncc2)c1	-4	0.8	-14	63*	?	0.9%
CCCCn1c(N)c(N(CCC(C)C)C(=O)c2c(CC)noc2C)c(=O)[nH]c1=O	-10	0.0	4	-5	-0.7	1.1%
Cc1c(Br)c([N+](=O)[O-])nn1C(C)C(=O)Nc1ccc2c(c1)OCO2 (stereo not given)	4	0.2	-20	-13	-1.8	4.9%[38.3 µM]
CC1=C(C(=O)Nc2ccc(C(=O)NC(C)c3ccccc3)cc2)SCCO1 (stereo not given)	0	-1.4	-7	-4	-4.2	-0.8%
O=C(Cc1ccccc1)c1c[nH]c(C(=O)NCCCN2CCOCC2)c1	-15	0.8	25	-1	-4.6	1.9%
CC1CC(C)CN(C(=O)Cn2c(=O)n(CCCC(=O)NCc3ccco3)c(=O)c3sccc32)C1 (stereo not given)	-3	-0.4	-3	-6	-5.0	-0.6%
Cc1ccc(N(C)C2=NC(=O)CS2)cc1Cl	-5	0.1	3	-2	-0.1	0.7%
CCOCC(=O)Nc1cc(C(=O)NCCc2ccccc2)ccc1Cl	49	0.0	-1	1	-0.7	-0.6%
COc1ccc(NC(=O)C(C)N=C2NS(=O)(=O)c3ccccc32)cc1S(N)(=O)=O (stereo not given)	4	-0.2	-1	-2	1.8	-0.9%
COc1cccc(C(NC(C)=O)c2nc(-c3cc4ccccc4o3)cs2)c1 (stereo not given)	nt	-0.3	5	-8	7.2	7.9%
SMILES	TRPML1 inh	TRPML1 ag	Six1-Eya2 inh	D2 PAM	D2 ag	PINK1 expr mod
O=C(c1cccc(S(=O)(=O)N2CCOCC2)c1)N1CCN(S(=O)(=O)c2cccc([N+](=O)[O-])c2)CC1	3	-0.4	-2	15	7.5	2.3%
COC(=O)Nc1nc(-c2ccccc2)c(C(=O)c2ccc(Cl)cc2)s1	11	1.2	-5	-4	-8.6	6.2%
CN(C)CC(O)CN1C(=O)NC(C)(C)C1=O (stereo not given)	7	-0.8	2	-1	8.5	0.4%
O=c1c([N+](=O)[O-])c(N2CCCCC2)c2ccccc2n1-c1ccccc1	4	-0.6	2	12	0.0	7.2%
O=C1[C@H]2[C@@H](c3ccc(F)cc3)N3C(=O)N(c4ccc(C(F)(F)F)cc4)C(=O)[C@@]3(Cc3ccccc3)[C@H]2C(=O)N1C1CCCCC1	16	0.5	-11	-17	-3.5	2.3%
COCCNC(=S)N1CCC2CC1c1c(Cl)cccc12 (stereo not given)	-5	-0.4	3	-2	-9.5	4.2%
CCCS(=O)(=O)N1CC(=O)N(c2cc(C)ccc2C)C(C)(C(=O)NC2CCCCCC2)C1 (stereo not given)	-3	1.9	nt	nt	nt	-1.4%
COC(=O)[C@@]1(Cc2ccc(F)cc2)[C@@H]2[C@@H](CC(=O)[C@H]2CC(=O)C(=O)N(C)C)CN1C(=O)c1ccccc1	0	0.9	3	-21	-9.8	-1.4%
C/C(N)=C(/C#N)C(=O)COC(=O)c1ccccc1Oc1ccccc1	11	-1.4	2	-6	-3.9	2.3%
COc1cc(OC)c(C(=O)OCC(=O)NC2CCCC2)cc1OC	10	-0.2	0	4	4.1	3.2%
Cc1ccc(CSc2nc3ccc(NC(=O)C(C)C)cc3s2)cc1	-3	2.9	nt	nt	nt	2.5%
COc1ccc2nc(SCC(=O)NC(C)C)[nH]c2c1	-7	2.0	2	3	-2.1	-0.3%
Cn1c(=NN=Cc2ccccc2OCCO)sc2ccccc21	-16	0.9	7	-5	5.0	2.8%
COc1cc2c(=O)n(CCC(=O)NCC3CCCO3)c(=O)n(CC(=O)Nc3ccc(C)cc3)c2cc1OC (stereo not given)	26&10	-0.5&-0.6	3	-1	2.0	5.8%&1.7%
Cc1ccnc(NS(=O)(=O)c2cc([N+](=O)[O-])ccc2C)c1	4	-0.9	-1	1	-3.2	11%
C=CCC(C(=O)OC)(C(=O)OC)c1ccc([N+](=O)[O-])cn1	10	-0.3	-2	-9	0.7	2.9%
CN1/C(=C/C=C(/C#N)C(N)=O)C(C)(C)c2ccccc21	15	4.6	?	-19	-6.9	3.6%
COc1ccc(NC(=O)Cn2c(C(C)C)nc(C)cc2=O)cc1Cl	14	1.2	3	-8	7.9	0.4%
COc1ccc2c(C)c(CCC(=O)NCCc3ccc(OC)c(OC)c3)c(=O)oc2c1	-15	-0.7	nt	nt	nt	2.0%
CCCOc1ccc(C2Nc3cccc4cccc(c34)N2)cc1	0	-0.1	2	2	?	-0.2%
CC(C)(C)c1ccc2cc(F)cc(F)c2n1	nt	-0.7	-7	-1	-1.4	4.5%
CCOc1ccccc1OCC(=O)Nc1cc(C)on1	1	0.9	-2	-10	-2.6	0.0%
Cc1ccc(C)c(C(=O)CSc2nc(C)cc(=O)[nH]2)c1	nt	nt	-1	25	1.2	-0.3%
CCN(CC)S(=O)(=O)c1ccc(Cl)c(C(=O)NC)c1	3	1.5	7	-4	0.7	3.4%
CCOC(=O)N1CCC(n2c(SCC(=O)c3ccccc3)nc3ccsc3c2=O)CC1	-6	-0.4	-1	-3	-0.3	21%[38.3 µM]
SMILES	TRPML1 inh	TRPML1 ag	Six1-Eya2 inh	D2 PAM	D2 ag	PINK1 expr mod
CCc1nnc(NS(=O)(=O)c2ccc(NC(=O)CCC(=O)OC)cc2)s1	-9	-0.2	2	1	-3.7	3.0%
CN1CCN(S(=O)(=O)c2ccc(Nc3cccc(Cl)c3)c([N+](=O)[O-])c2)CC1	-7	-0.1	?	-9	-0.5	-0.7%
COc1ccc(-c2cn3nc(N4CCCC(C(=O)NCc5ccc(Cl)cc5)C4)sc3n2)cc1 (stereo not given)	14	-0.1	nt	nt	nt	0.0%
Cc1nc2nc(C)n(CCN3CCOCC3)c(=O)c2c(-c2cccc([N+](=O)[O-])c2)c1C(=O)CCCCCCCCCCN1CCC(c2ccccc2)(c2ccccc2)CC1	0	3.2	?	-26	7.2	-5.1%
CCC[n+]1c(C)sc2c3c(ccc21)CCCC3	-1	-0.1	34	-14	-3.5	?
Cc1c2cnn(-c3ccccc3)c(=O)c2c(C)n1CCCC(=O)N1CCN(C)CC1	9	0.0	-1	-9	-1.1	-0.7%
Cc1ccccc1NC(=O)C1CCCN(S(=O)(=O)c2ccc3c(c2)C(C)(C)C(=O)N3C)C1 (stereo not given)	-1	-0.5	0	-3	-4.7	0.8%
Cc1onc(-c2ccccc2Cl)c1C(=O)Oc1cccc2cccnc12	-9	1.8	?	11	1.3	2.9%
CC(C)COC(=O)Nc1nnc(SCCOc2ccccc2)s1	12	1.5	-10	3	-4.5	-1.6%
CCOC(=O)N1CCN(c2c(NCCCN(C)c3ccccc3)c(=O)c2=O)CC1	3	-0.5	-6	-4	5.0	0.7%
CCN(CC)c1ccc(S(=O)(=O)N2CCOCC2)cc1NC(=O)CN1C(=O)NC2(CCC(C)CC2)C1=O (stereo not given)	7	1.7	-1	-4	-1.6	-1.1%
Cc1ccc(NC(=O)CCC(=O)NNC(=S)Nc2ccc(F)cc2)c(C)c1	29	0.5	-1	-10	-2.3	-2.4%
Cc1ccccc1-c1nn(-c2ccc(F)cc2F)cc1CNCCCO	-13	-0.4	5	-17	-4.2	1.7%
CCCNC(=O)CCc1nnc2ccc(N3CCN(c4cccc(OC)c4)CC3)nn12	7	-1.0	nt	nt	nt	-0.8%
COc1ccc(C(=O)Nc2nc3ccccc3c(=O)[nH]2)cc1	-4	-0.3	1	-15	-2.2	2.1%[38.3 µM]
C[C@@H]1O[C@@H](OCCC(=O)O)[C@H](O)C[C@H]1O	?	-0.3	9	-7	-1.2	0.5%
O=S(=O)(NC1=NCCCCC1)c1ccc(Cl)cc1Cl	34	0.4	7	-13	-5.1	0.3%
Cn1c(=O)[nH]c(=O)c2c1nc(N(CCO)Cc1ccccc1)n2CCCc1ccccc1	9	1.7	-8	0	2.5	7.6%
CC(=O)c1cccc(NC(=S)NC(=O)C(C)C)c1	13	0.9	7	1	-2.2	nt
CCOc1ccc2nc(NC(=O)Cn3[nH]c(=O)c4ccccc4c3=O)sc2c1	15	-0.2	-2	-10	-3.8	?
